Screens: PubChem, National Center for Advancing Translational Sciences (NCATS)
Vaccinia Venus – inhibitors of vaccinia virus (Venus reporter). Vaccinia virus Venus reporter expression, fluorescence. Potency, µM (highest dose often 36.5 µM), for inactives: at the top dose activity change, negative = inhibition, most hits filed as inhibitors. actives 0.46% (n = 330,000). AID 720580; active means well fitted inhibition curve with a large enough effect; inconclusive means small, poorly fitted or top-dose-only effect; inactive means no such curve, though single readings can be large or run the other way; tested in A549 cells; note: nearly all actives have a fitted effect of over 30% in size; inactives centre near -10
Vaccinia mCherry – vaccinia inhibition (mCherry reporter); Vaccinia virus mCherry reporter infection, fluorescence; about a quarter of the inactives have no number; Potency, µM (doses to about 36.5 µM), for inactives: at the highest dose activity change, negative = inhibition, most hits filed as inhibitors; actives 0.63% (n = 310,000); active = well fitted inhibition curve with a large enough effect; inconclusive = small, poorly fitted or top-dose-only effect; inactive = no such curve, though single readings can be large or run the other way; tested in A549 cells; note: nearly all actives have a fitted effect of over 35% in size; inactives centre near -10
An asterisk follows results filed as active; i = inactive; ? = inconclusive; . = no result given; & = joins results of further samples; [ ] = dose if it differs, or a comment. % is set by controls: 0 for no effect and ±100 for the full control effect; potency is the fitted concentration of half-maximal effect.

Compound	Vaccinia Venus	Vaccinia mCherry
C=CCOc1cc(OC)c(OC)c(OC)c1	-18%	-12%
O=c1[nH]ncc(N/N=C/c2ccccc2)c1Cl	-12%	i
COc1ccc(Cc2noc(CN3CCN(c4ccc(Cl)cn4)CC3)n2)cc1OC	?	-16%
OCC[C@H]1NCc2cc(CO)cc(-c3ccccc3)c21	-4%	-5%
O=C(Nc1nc(-c2ccccc2)ns1)c1ccc(Cl)cc1	-14%	-9%
CN(C)S(=O)(=O)N(CC(=O)Nc1cccc(F)c1)c1ccccc1	-9%	-14%
O=C(NCC(c1cccs1)N1CCOCC1)c1cc(-c2ccc(F)cc2)nc2ccccc12 (stereo unspecified)	-23%	-10%
Cc1[nH]n(-c2ccc(C(=O)O)cc2)c(=O)c1CCO	4%	i
O=C(Nc1cc(S(=O)(=O)N2CCOCC2)ccc1N1CCOCC1)c1ccc(Cl)nc1	-11%	-13%
COC(=O)Nc1cc(C)nc2ccccc12	1%	.

Quoted from the listing.
`COc1ccc(Cc2noc(CN3CCN(c4ccc(Cl)cn4)CC3)n2)cc1OC` in Vaccinia mCherry reads -16%
`OCC[C@H]1NCc2cc(CO)cc(-c3ccccc3)c21` in Vaccinia Venus reads -4%

(listing goes on)
Compound	Vaccinia Venus	Vaccinia mCherry
CCN(CC)c1ncnc2c1ncn2[C@H]1CN(Cc2cc(OC)c(OC)c(OC)c2)C[C@@H](CO)O1	-1%	20%
COC(=O)c1cccc(NC(=O)c2onc3c2CCCC3)c1	-10%	-2%
COC(=O)c1ccc(NC(C(=O)OC)C(C)C)c([N+](=O)[O-])c1 (stereo unspecified)	-7%	i
C=CCSc1nnc(-c2ccc([N+](=O)[O-])cc2)o1	-16%	-9%
C/C(=N\NC(=O)c1ccc(CSc2nncn2C)cc1)c1cccs1	-17%	i
Cc1cccc(C(=O)Oc2ccc(/C=N/NC(=O)c3ccc(O)cc3)cc2)c1	-7%	-12%
CC(C)(C)n1nnnc1C(c1cc2cc3c(cc2[nH]c1=O)OCCO3)N1CCSCC1 (stereo unspecified)	0%	-7%
COc1ccc(CCNC(=O)c2ccccc2SC)cc1	0%	1%
COc1ccc(-c2c(O)c3c(OC)c4c(cc3oc2=O)OC(C)(C)CC4)cc1	28%	24%
O=c1/c(=C/c2ccc([N+](=O)[O-])cc2)sc2n1CCCN=2	-12%	.
c1ccc(CN2CCC3CC2c2c3cccc2N2CCOCC2)cc1 (stereo unspecified)	9%	40%[activator]
O=C(NCc1cccnc1)NC1(c2ccccc2)CC1	-23%	i
COc1ccccc1N1CCN(C2CC(=O)N(c3ccc(Cl)cc3)C2=O)CC1 (stereo unspecified)	-5%	-8%
Cc1cccc2sc(NS(C)(=O)=O)nc12	-2%	i
CC(C)N1CCc2c(sc(NC(=O)c3nc4ccccc4s3)c2C(N)=O)C1	-18%	-24%
Cc1ccc(/C=N/NC(=O)CNC(=O)Cc2ccccc2)o1	-8%	-11%
COc1cc(C(=O)N/N=C(\C)Cn2nc([N+](=O)[O-])cc2C)ccc1O	-1%	i
O=C(CS(=O)(=O)c1cccc2nsnc12)N1CCN(c2cccc(Cl)c2)CC1	-8%	-16%
C=CC[C@@H]1Cc2c(Br)ccc(Br)c2[C@@H](CC=C)N1	-10%	-5%
CN(CC(=O)Nc1ccc(Br)cc1)S(=O)(=O)c1cccc2nsnc12	-6%	-5%
Cc1ccc(C)c(OCCC(=O)OCC(=O)NC(=O)NC2CCCC2)c1	-5%	-9%
O=C(Nc1ccc2c(c1)OCO2)c1ccncc1	4%	-3%
CC(O)CNc1nc(N)[nH]c(=O)c1N=Nc1ccccc1 (stereo unspecified)	-18%	i
c1ccc(C2=NNC(=NC3CC3)SC2)cc1	-8%	i
CCN(CC)c1ccc(NC(=O)CN2CCN(CC(=O)Nc3ccccc3F)CC2)cc1	-22%	.
COc1cccc(CNC(=O)COC(=O)c2ccc(N3CCCC3=O)cc2)c1	-1%	-3%
O=C(NCc1cccnc1)c1cc(C(=O)C2CC2)c[nH]1	-2%	i
CCCCN(C(=O)Cn1ncc(Cl)c(Cl)c1=O)c1c(N)n(CC(C)C)c(=O)[nH]c1=O	6%	-8%
CN1CCC(N2CCN(C3CN(C4CCCCC4)S(=O)(=O)C3)CC2)CC1 (stereo unspecified)	-2%	i
Cn1nnc(NC(=S)NC(=O)c2ccc3ccccc3c2)n1	-13%	-3%
O=S(=O)(Nc1ccc(N2CCOCC2)cc1)c1ccc2ccccc2c1	-6%	-3%
Cc1cc(=O)oc2cc(NC(=O)c3ccccc3OC(F)F)ccc12	-6%	-11%
O=C(COC(=O)Cc1n[nH]c(=O)c2ccccc12)NNC(=O)c1ccc(Cl)cc1	-10%	-19%
CCn1ncc(/C=C/C(=O)C2CC2)c1C	-8%	-25%
NC(=O)c1cccn1-c1ncc(C(F)(F)F)cc1Cl	4%	-9%
COC(=O)c1cccc(N/C=C(\[N+](=O)[O-])S(=O)(=O)c2ccccc2)c1	1%	-15%
Cc1ccc2c(c1)C(c1ccc(O)cc1)(c1ccc(O)cc1)C(=O)N2C	-14%	i
CCn1c(CN2CCCCC2)nc2cc(NC(=O)c3cc(OC)c(OC)c(OC)c3)ccc21	-10%	i
Cc1ccc(NC(=O)CSCC(=O)Nc2ccc(N3CCOCC3)c(Cl)c2)cc1	-15%	.
Cc1ccc2nc(SCC(=O)Nc3cccc([N+](=O)[O-])c3)[nH]c2c1	-20%	i
COc1ccc(-c2nc3ccccn3c2C=O)cc1	-11%	27%
CCCNC(=O)/C(C#N)=C1\N=C(NC(=O)c2cccs2)c2ccccc21	-5%	-18%
COc1ccc(N2CCN(C(=O)CN3C(=O)CSc4c3c(C)nn4-c3ccccc3)CC2)cc1	-10%	-2%
CC(C)(C)NS(=O)(=O)c1ccc(-c2csnn2)s1	-7%	-22%
O=C(CCNC(=O)c1ccc(Br)cc1)Nc1cc(Cl)ccc1-n1cncn1	-5%	2%
COc1ccc(NC(=O)CSc2nnc(-c3ccoc3C)n2CCc2ccccc2)cc1	?	-16%
CC(C)C(=O)N1CCC1(C)C(=O)Nc1cc(-c2ccccc2)nn1C (stereo unspecified)	2%	-7%
Cc1ccccc1-n1c(SCC(=O)N/N=C/C=C/c2ccccc2[N+](=O)[O-])nc2ccccc2c1=O	-16%	-20%
Cc1ccc(CSCCNS(=O)(=O)c2ccc([N+](=O)[O-])cc2)cc1	1%	?
O=C(CNC(=O)c1cc(S(=O)(=O)N2CCCCC2)ccc1N1CCOCC1)Nc1ccc(F)c(F)c1	-2%	-10%

Next records.
Compound	Vaccinia Venus	Vaccinia mCherry
Cc1ccc(S(=O)(=O)N2CCOCC2)cc1NC(=O)CSc1nnc(COc2ccccc2F)n1N	4%	-14%
Cc1ccc(CN(c2ccc(C(=O)N3CCCC3)cc2)S(C)(=O)=O)cc1	-16%	.
CC(C)[C@H](NC(=O)[C@@H]1Cc2ccccc2CN1)C(=O)NC1CCCCC1	-4%	-17%
CCCC1NC(=O)c2cccnc2-n2c1nc1ccc(Br)cc1c2=O (stereo unspecified)	-2%	-19%
CC(=O)S[C@@H]1CC2=CC(=O)CC[C@]2(C)[C@H]2CC[C@@]3(C)[C@@H](CC[C@@]34CCC(=O)O4)[C@H]12	-24%	?
c1ccc2c(C(c3c[nH]c4ccccc34)c3c[nH]c4ccccc34)c[nH]c2c1	-18%	-11%
C/C(=N\c1nc2ccccc2n1C)c1cc(Cl)ccc1O	5%	.
O=C1CC2CS(=O)(=O)CC2N1c1ccc(Cl)cc1Cl (stereo unspecified)	-10%	-16%
CCOC(Cn1c(SCc2cc(C(C)=O)ccc2OC)nc2ccccc2c1=O)OCC	0%	-2%
NC(=O)CCn1c(C(=O)c2cccc([N+](=O)[O-])c2)c2ccccc2[n+]1[O-]	0%	-18%

One compound at a time (already shown).
Cc1ccc(S(=O)(=O)N2CCOCC2)cc1NC(=O)CSc1nnc(COc2ccccc2F)n1N as listed: Vaccinia Venus = 4%; Vaccinia mCherry = -14%
CC(=O)S[C@@H]1CC2=CC(=O)CC[C@]2(C)[C@H]2CC[C@@]3(C)[C@@H](CC[C@@]34CCC(=O)O4)[C@H]12 as listed: Vaccinia Venus = -24%; Vaccinia mCherry = ?
CCOC(Cn1c(SCc2cc(C(C)=O)ccc2OC)nc2ccccc2c1=O)OCC as listed: Vaccinia Venus = 0%; Vaccinia mCherry = -2%

The results go on.
Compound	Vaccinia Venus	Vaccinia mCherry
O=C(Cn1cc(SCc2ccc(Cl)cc2)c2ccccc21)N1CCOCC1	-17%&-18%	?
Cc1cc(NC(=O)Nc2cccc3ccccc23)no1	-14%	?
COc1cc(C(=O)Sc2ccc(C)cc2)cc(OC)c1OC	-1%	i
O=C(NCCNc1ccc([N+](=O)[O-])cc1)c1cccc2c(Br)cccc12	-24%	-20%
O=c1ccn([C@@H]2O[C@H](CNCc3c(OCc4ccccc4F)ccc4ccccc34)[C@@H](O)[C@H]2O)c(=O)[nH]1	2%	22%
CCN(C(=O)CSc1nc2ccccc2nc1Cc1ccc(F)cc1)c1cccc(C)c1	-9%	-7%
O=C(c1cnn(-c2ccc(F)cc2)c1-n1cccc1)N1CCN(c2cccc(Cl)c2)CC1	-17%	-29%
OCC[C@@H]1C[C@H](O)[C@@H](O)[C@@]2(OCCCc3cc(Cl)ccc32)O1	8%	14%
COc1ccccc1C(=O)O/N=C(/c1ccncc1)c1ccc([N+](=O)[O-])cc1	-11%	-4%
Cc1cc(C)cc(OCC(=O)N(Cc2cccs2)c2ccc(Cl)cc2)c1	5%	-5%
O=C1C2C3C=CC(C3)C2S(=O)(=O)C2C3C=CC(C3)C12 (stereo unspecified)	-3%	i
CCOC(=O)N1CCC(NC(=O)C2CCCN(Cc3nc(-c4cccc(Cl)c4)oc3C)C2)CC1 (stereo unspecified)	?	?
O=C1CCCC(O)=C1C=Nc1cccc(C(F)(F)F)c1	-15%	i
CCN1C(=O)/C(=C2\SC(=S)N(NC(=O)c3ccccc3O)C2=O)c2ccccc21	-4%	i
CCc1c(C)sc2nc3c(C(=O)N4CCOCC4)cc(C(=O)c4ccccc4O)cn3c(=O)c12	25%	-5%
CC(=O)Oc1ccc(-c2cccc(C(=O)NCCCO)c2)cc1	-7%	-12%
O=[N+]([O-])c1cccc(N(CC(O)CN2CCCCC2)S(=O)(=O)c2ccccc2)c1 (stereo unspecified)	-9%	8%
CCOc1ccccc1CN1CCC(n2nccc2NC(=O)C2CCCC2)CC1	-10%	i
O=C(CSCCc1ccccn1)Nc1cccnc1	-6%	.
CN(C)c1ccc(CC(=O)N2CCCCC2c2cc(C(=O)Nc3cccc4c3CCCC4)no2)cc1 (stereo unspecified)	-24%	?
Cc1ccc(CSc2ncccc2C(=O)O)cc1	-9%	-4%
COC(=O)CCc1sc(Nc2ccc(Br)cc2)nc1-c1ccc(OC)cc1	-21%	i
O=C(OCC(=O)N1CCN(C(=O)c2ccco2)CC1)c1ccc(S(=O)(=O)N2CCCCC2)cc1	-5%	.
C/C(=N\NC(=O)c1ccc2c(c1)OCO2)c1ccc(O)cc1	-17%	?
CCOC(=O)C1=C(SCC(=O)Nc2ccccc2)NC(=O)C(C#N)C12CCCCC2 (stereo unspecified)	-11%	.
COCc1cc(C)nc(OCC(=O)N/N=C/c2ccco2)c1C#N	-3%	-8%
CCOc1cc(C)c(Cl)cc1S(=O)(=O)NCc1ccco1	-19%	.
C/C(=N\OC(=O)c1ccc(OC(C)C)cc1)c1ccc(C)c(C)c1	-4%	-12%
CCC(C)c1ccccc1NC(=O)COC(=O)c1ccc(N2CCCC2)c([N+](=O)[O-])c1 (stereo unspecified)	-11%	-13%
COc1ccc(C(=O)Nc2c3c(nn2C(C)(C)C)CS(=O)(=O)C3)cc1OC	-9%	i
COc1ccccc1N(CC(=O)NC1CCCC1)S(=O)(=O)c1ccc(C)cc1	-13%	-10%
Cc1nn2cc(-c3ccc(Cl)cc3)cnc2c1Cl	-11%	i
CCOCCc1nnc(NC(=O)C(=O)c2cc(C)n(-c3ccc(C)cc3C)c2C)s1	-13%	-15%
CCC1CCCCN1C(=O)CSc1nnc(-c2c[nH]c3ccccc23)o1 (stereo unspecified)	-11%	-25%
COc1ccc(CC(NC(C)=O)C(=O)NC2CCN(S(=O)(=O)c3ccccc3)CC2)c(OC)c1 (stereo unspecified)	0%	-4%
CCCn1cc(NC(=O)c2cc(-c3ccccc3)on2)cn1	-23%	?
COCCCNC(=O)CCCn1c(SCC(=O)c2ccc(F)cc2)nc2c(sc3ccccc32)c1=O	-1%	-1%
CCOc1ccc(S(=O)(=O)N2CCC(C(=O)OC(C)C(=O)N3CCOCC3)CC2)cc1 (stereo unspecified)	-16%	-14%
CC(Cc1cccnc1)NC(=O)c1cc(COc2c(F)cccc2F)on1 (stereo unspecified)	-27%	-11%
CC1CN(S(=O)(=O)c2cccc(C(=O)N3CCC(C(N)=O)CC3)c2)CC(C)O1 (stereo unspecified)	-3%	-11%

Outcome played no part in choosing rows. About 0.87% of those tested had a hit in this group.
